High-throughput results deposited in PubChem by Broad Institute.
Vaccinia inh: blocks a specific stage of Vaccinia orthopoxvirus infection; 89,000 tested, 0.01% active; Vaccinia-infected cells, mCherry/Venus stage reporter fluorescence; active compounds read low; some inactives read as strong as hits; activity change (mCherry), % (no concentration beside the values);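 active = mCherry past -33% and 40 or more points under the early reporter, replicates agreeing; inconclusive = past -33% without that gap or agreement; tested in A549 cells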;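 also: scaled between vehicle wells and reference inhibitor wells; 23 nL library stock went into each well; one replicate is shown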
Vaccinia inh Venus: second read-out of Vaccinia inh, no call of its own (marks repeat the call); activity change (Venus), %; measured here: Venus reporter, other viral stage;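 negative = less Venus signal; first of two replicates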
Numbers without * were called inactive; ? = inconclusive; . = not tested or not shown; & = joins results of further samples. Some of the compounds tested; the hit share may differ from the screen's.

structure | Vaccinia inh | Vaccinia inh Venus
C[C@@H]1CCCCO[C@@H](CN(C)C(=O)Cc2ccccc2)[C@@H](C)CN([C@H](C)CO)C(=O)c2cc(NS(=O)(=O)c3cn(C)cn3)ccc2O1 | 19 | 5
Cc1noc(C)c1NC(=O)N(C)C[C@H]1Oc2c(NC(=O)C3CC3)cccc2C(=O)N([C@H](C)CO)C[C@@H]1C | -6 | 7
O=C(C[C@@H]1C[C@H]2c3cc(NC(=O)c4cccnc4)ccc3O[C@H]2[C@H](CO)O1)NCc1ccccn1 | 1 | 0
COc1ccc(S(=O)(=O)N(C)C[C@H]2OCCCC[C@@H](C)Oc3ccc(NC(=O)c4ccncc4)cc3C(=O)N([C@@H](C)CO)C[C@H]2C)cc1 | -4 | -1
C[C@H](CO)N1C[C@H](C)[C@H](CN(C)S(=O)(=O)Cc2ccccc2)OCc2ccccc2-c2c(n(C)c3ccccc23)C1=O | ? | .
COc1ccc(S(=O)(=O)N(C)C[C@@H]2Oc3ccc(NC(=O)Nc4ccc(C(F)(F)F)cc4)cc3CC(=O)N([C@H](C)CO)C[C@H]2C)cc1 | 1 | 13
CN(C)CC(=O)N[C@H]1CC[C@H](CCNC(=O)C2CCCC2)O[C@H]1CO | -2 | -3
CC(=O)NC[C@@H]1[C@@H](c2ccc(C3=CCCC3)cc2)[C@H](CO)N1C(=O)NC(C)C | 1 | 2
COc1ccc(CN(C)C[C@@H]2OCCCC[C@@H](C)Oc3ccc(NS(=O)(=O)c4ccc(C)cc4)cc3C(=O)N([C@@H](C)CO)C[C@H]2C)cc1 | -32 | -33
CS(=O)(=O)Nc1ccc2c(c1)[C@@H]1C[C@H](CC(=O)NCc3ccc(Cl)cc3)O[C@@H](CO)[C@@H]1O2 | 7 | 8
CC(=O)N1CC[C@@H]2[C@@H](CO)N(C)c3ccc(-c4ccc(C#N)cc4)cc3[C@@H]21 | -6 | -1
C[C@@H]1CN([C@@H](C)CO)C(=O)c2cccc(NC(=O)c3nc4ccccc4s3)c2O[C@H]1CN(C)Cc1ccc(C(=O)Nc2ccccc2N)cc1 | 11 | 8
COc1ccc(NC(=O)N(C)C[C@H]2Oc3ccc(NC(=O)Nc4cccc5ccccc45)cc3CC(=O)N([C@@H](C)CO)C[C@H]2C)cc1 | 16 | 13
CO[C@@H]1CN(C)C(=O)c2ccc(NC(=O)C3CC3)cc2OC[C@@H](C)N(CCC(F)(F)F)C[C@H]1C | 9 | 1
C[C@H]1CN([C@@H](C)CO)C(=O)c2cc(N(C)C)ccc2O[C@H]1CN(C)Cc1ccc(-c2ccccc2)cc1 | -6 | -5

Entries of single compounds, looked up by structure. Values in the order: Vaccinia inh | Vaccinia inh Venus
COc1ccc(CN(C)C[C@@H]2OCCCC[C@@H](C)Oc3ccc(NS(=O)(=O)c4ccc(C)cc4)cc3C(=O)N([C@@H](C)CO)C[C@H]2C)cc1 as listed: -32 | -33
COc1ccc(NC(=O)N(C)C[C@H]2Oc3ccc(NC(=O)Nc4cccc5ccccc45)cc3CC(=O)N([C@@H](C)CO)C[C@H]2C)cc1 as listed: 16 | 13

More entries
structure | Vaccinia inh | Vaccinia inh Venus
CCC(=O)N(C)C[C@@H]1Oc2cc(C#CC(C)(C)O)ccc2S(=O)(=O)N([C@@H](C)CO)C[C@@H]1C | 13 | 10
CCS(=O)(=O)N1CC2(CN(C(=O)Nc3c(C)noc3C)[C@@H](CO)c3[nH]c4cc(OC)ccc4c32)C1 | 33 | 16
C=CCOC(=O)[C@H]1[C@@H]2C(=O)O[C@@H](c3ccccc3)[C@@H](c3ccccc3)N2[C@@H](c2ccc(OCCOC(=O)[C@@H]3C[C@@H]4C(=O)N[C@@H](CC(C)C)C(=O)N4[C@@H]3c3cccc(OCCO)c3)cc2)[C@]12C(=O)Nc1ccccc12 | 14 | 14
CO[C@@H]1CN(C)C(=O)c2cc(NS(=O)(=O)c3ccccc3)ccc2OC[C@H](C)NC[C@@H]1C | 13 | 4
O=C(C[C@H]1CC[C@@H]2[C@H](COC[C@@H](O)CN2C(=O)Nc2ccc3c(c2)OCO3)O1)N1CCN(c2ccccc2)CC1 | 4 | 2
COc1ccc(CN(C)C[C@@H]2Oc3ccc(NC(=O)CCN4CCOCC4)cc3C(=O)N([C@@H](C)CO)C[C@@H]2C)cc1 | 13 | 14
N#C[C@@H]1N[C@H](CO)[C@H]1c1ccc(-c2cccc(F)c2)cc1 | -15 | -12
COc1ccccc1NC(=O)N1CC(=O)N2[C@H](CO)[C@@H](c3ccc(-c4cccc(C)c4)cc3)[C@H]2C1 | ? | .
CC=Cc1ccc2n(c1=O)C[C@H]1[C@H](CO)[C@@H](C(=O)NCc3ccccc3)[C@@H]2N1Cc1ccccc1OC (mixture of isomers) | -11 | 7
C[C@@H]1CN([C@H](C)CO)C(=O)c2cc(NC(=O)Nc3ccccc3)ccc2O[C@@H]1CN(C)S(=O)(=O)c1cn(C)cn1 | 11 | 8
C[C@@H]1CCCCO[C@@H](CN(C)Cc2ccc(Cl)c(Cl)c2)[C@@H](C)CN([C@@H](C)CO)C(=O)c2cc(NC(=O)Nc3ccc4c(c3)OCO4)ccc2O1 | -13 | -11
C[C@@H]1CN([C@@H](C)CO)S(=O)(=O)c2ccc(C#Cc3ccccc3)cc2O[C@H]1CN(C)S(=O)(=O)c1ccccc1F | -13 | -15
C[C@@H]1CN([C@@H](C)CO)C(=O)c2cc(NS(=O)(=O)c3cn(C)cn3)ccc2O[C@@H](C)CCCCO[C@H]1CN(C)Cc1ccc(C(=O)O)cc1 | 16 | 0
CCC(=O)N1[C@H](CO)[C@H](c2ccccc2)[C@H]1CN(CC)C(=O)c1cccc(F)c1 | 15 | 7
CC(C)NC(=O)N(C)C[C@H]1Oc2c(NC(=O)c3ccc(-c4nccs4)cc3)cccc2C(=O)N([C@H](C)CO)C[C@@H]1C | 4 | -1

Remaining list, next part
structure | Vaccinia inh | Vaccinia inh Venus
CN1c2ccc(-c3cccc(C#N)c3)cc2[C@@H]2[C@@H](CCN2C(=O)c2ccc(F)cc2)[C@@H]1CO | ? | .
CC=Cc1ccc2n(c1=O)C[C@H]1[C@H](CO)[C@@H](C(=O)Nc3ccccc3)N(CC3CC3)[C@@H]21 (mixture of isomers) | 17 | 11
C[C@H](CO)N1C[C@H](C)[C@H](CN(C)C(=O)Nc2ccccc2F)Oc2ncc(-c3ccc(F)cc3)cc2C1=O | -10 | -4
C[C@H]1CN([C@@H](C)CO)C(=O)c2cc(C#Cc3ccncc3)cnc2O[C@@H]1CN(C)S(=O)(=O)c1ccccc1F | -32 | -22
COc1cccc(S(=O)(=O)N[C@@H]2CC[C@H](CCn3cc(-c4ccccn4)nn3)O[C@@H]2CO)c1 | -8 | 4
N#C[C@H]1[C@@H](c2ccc(C#Cc3ccccc3F)cc2)[C@H](CO)N1C(=O)C1CC1 | ? | .
C[C@@H]1CN([C@H](C)CO)C(=O)Cc2cc(NC(=O)C3CCCCC3)ccc2O[C@H]1CN(C)C(=O)Nc1ccc(F)cc1 | 4 | 0
Cc1cccc(-c2ccc([C@H]3[C@@H](CO)N4CCCCN(C(=O)c5cccnc5)C[C@H]34)cc2)c1 | -17 | -16
Cc1noc(C)c1S(=O)(=O)Nc1ccc2c(c1)C(=O)N([C@@H](C)CO)C[C@H](C)[C@H](CN(C)C(=O)Nc1ccc(C(F)(F)F)cc1)OCCCC[C@H](C)O2 | -26 | -12
C[C@@H]1CN([C@H](C)CO)C(=O)Cc2cc(NS(=O)(=O)c3ccc(F)cc3)ccc2O[C@@H]1CN(C)C(=O)Nc1ccccc1 | 15 | 9
C[C@@H]1CN([C@@H](C)CO)C(=O)Cc2cc(NC(=O)C3CC3)ccc2O[C@H]1CN(C)Cc1ccncc1 | 7 | 2
CCCN(C)C[C@@H]1Oc2cc(C#CCOC)ccc2S(=O)(=O)N([C@H](C)CO)C[C@@H]1C | 18 | 1
O=C(Nc1cc(F)ccc1F)N1[C@@H]2CNC[C@H]1C2c1ccc(-c2cccnc2)cc1 (stereo not given in full) | -4&-25 | -8&-16
C[C@H]1CCCCO[C@@H](CN(C)Cc2ccncc2)[C@@H](C)CN([C@@H](C)CO)C(=O)c2cc(NC(=O)Nc3ccc(C(F)(F)F)cc3)ccc2O1 | ? | .
CN1C(=O)c2cc(NC(=O)C3CCCC3)ccc2OC[C@H]2O[C@@H](CC(=O)NCC(F)(F)F)CC[C@@H]21 | 8 | 7

Carrying on.
structure | Vaccinia inh | Vaccinia inh Venus
CCCC#Cc1ccc2c(c1)O[C@@H](CN(C)C(=O)CN(C)C)[C@H](C)CN([C@H](C)CO)S2(=O)=O | -21 | -8
COc1ccc(NC(=O)N[C@@H]2C=C[C@H](CC(=O)NC3CCC3)O[C@H]2CO)cc1 | 3 | 2
C[C@@H]1CN([C@@H](C)CO)C(=O)c2cc(NC(=O)Nc3ccc(F)cc3)ccc2O[C@@H](C)CCCCO[C@@H]1CN(C)Cc1ccc(C(=O)O)cc1 | 22 | 7
COc1ccc(S(=O)(=O)N(C)C[C@H]2OCCCC[C@@H](C)Oc3ccc(NC(=O)Cc4ccccc4)cc3C(=O)N([C@@H](C)CO)C[C@H]2C)cc1 | -17 | -16
CO[C@H]1CN(C)C(=O)c2ccc(NC(=O)c3ccc4c(c3)OCO4)cc2OC[C@H](C)N(CCC(F)(F)F)C[C@@H]1C | -35 | -28
CN1[C@H](C(=O)NCCc2ccccc2)[C@@H](CO)[C@@H]2Cn3c(cccc3=O)[C@@H]21 | 2 | 1
COCC(=O)N(C)C[C@H]1Oc2cc(C#CC(C)(C)O)ccc2S(=O)(=O)N([C@@H](C)CO)C[C@@H]1C | 9 | 4
CO[C@@H]1CN(C)C(=O)c2ccc(NC(=O)C3CCC3)cc2OC[C@H](C)N(CC2CCCCC2)C[C@@H]1C | -8 | -6
Cc1cc(C(=O)Nc2cccc3c2O[C@@H](CN(C)Cc2ccc4c(c2)OCO4)[C@@H](C)CN([C@@H](C)CO)C3=O)n(C)n1 | -15 | -13
C[C@H](CO)N1C[C@H](C)[C@H](CN(C)Cc2ccc(C(=O)O)cc2)OCCCC[C@H](C)Oc2ccc(NC(=O)c3ccncc3)cc2C1=O | 27 | 8
COc1ccc(CNC(=O)C[C@H]2C[C@H]3c4cc(NC(=O)NC5CCCC5)ccc4O[C@H]3[C@H](CO)O2)cc1 | 0 | -1
C[C@@H]1CCCCO[C@H](CN(C)C(=O)c2ccccc2)[C@@H](C)CN([C@H](C)CO)C(=O)c2cc(NC(=O)Nc3ccc4c(c3)OCO4)ccc2O1 | 26 | 7
C[C@H]1CN([C@@H](C)CO)C(=O)c2cc(NS(=O)(=O)c3ccc(F)cc3)ccc2O[C@H]1CN(C)C(=O)Nc1ccc2c(c1)OCO2 | 9 | 0
COCCNC(=O)C[C@@H]1CC[C@H]2[C@@H](COC[C@H](O)CN2S(=O)(=O)c2ccccc2C)O1 | 3 | 12
COCC(=O)Nc1ccc2c(c1)C(=O)N(C)C[C@H](OC)[C@H](C)CN(C(=O)c1cnccn1)[C@H](C)CO2 | 1 | 2

The listing continues.
structure | Vaccinia inh | Vaccinia inh Venus
O=C(NC1CCCCC1)N1CC(=O)N2[C@H](C1)[C@H](c1ccc(/C=C/c3ccccc3)cc1)[C@@H]2CO | ? | .
O=C(C[C@H]1C[C@H]2c3cc(NC(=O)C4CCC4)ccc3O[C@H]2[C@@H](CO)O1)NCc1ccccc1 | 0 | -2
O=C(c1ccccc1)N1C[C@H]2[C@@H](c3ccccc31)[C@@H](CO)N2Cc1ccccc1F | -1 | -1
Cc1ccc(S(=O)(=O)N(C)C[C@H]2OCCCC[C@@H](C)Oc3ccc(NS(=O)(=O)c4cn(C)cn4)cc3C(=O)N([C@@H](C)CO)C[C@H]2C)cc1 | 4 | 3
C[C@H]1CN([C@@H](C)CO)C(=O)c2cccc(NC(=O)c3nc4ccccc4s3)c2O[C@H]1CN(C)S(=O)(=O)c1cn(C)cn1 | -3 | 2
CCC(=O)N1C[C@@H](C)[C@H](OC)CN(C)C(=O)c2ccc(NC(=O)c3ccccc3)cc2OC[C@@H]1C | -1 | -1
CC(C)CC#Cc1cnc2c(c1)C(=O)N([C@H](C)CO)C[C@@H](C)[C@H](CN(C)Cc1ccccc1)O2 | ? | .
C[C@@H]1CCCCO[C@H](CN(C)C(=O)Nc2ccc(F)cc2)[C@@H](C)CN([C@@H](C)CO)C(=O)c2cc(NS(=O)(=O)c3cn(C)cn3)ccc2O1 | 9 | 4
C[C@@H]1CN([C@H](C)CO)C(=O)c2cccc(NS(C)(=O)=O)c2O[C@H]1CN(C)Cc1ccc(Cl)c(Cl)c1 | -5 | -7
CC=Cc1ccc2n(c1=O)C[C@@H]1[C@@H](CO)[C@H](C(=O)N[C@H](C)c3ccccc3)N(C(=O)c3ccccn3)[C@H]21 (mixture of isomers) | -3 | 3
COc1cc2c(cc1OC)-c1onc(-c3ccc(OCCO)cc3)c1CCCN(CC(C)O)CC2 (stereo not given) | 7 | 0
C[C@@H]1CN([C@@H](C)CO)C(=O)c2cc(NS(C)(=O)=O)ccc2O[C@@H]1CN(C)Cc1ccccc1 | 10 | 12
CN(C)C(=O)c1cccc(-c2ccc([C@H]3[C@@H](CO)N4C(=O)CN(C(=O)C5CCCC5)C[C@@H]34)cc2)c1 | 9 | 13
CC(C)NC(=O)Nc1ccc2c(c1)C(=O)N([C@@H](C)CO)C[C@H](C)[C@@H](CN(C)C(=O)CCCN(C)C)OCCCC[C@H](C)O2 | 13 | 1

Look-ups from the results shown.
CN(C)C(=O)c1cccc(-c2ccc([C@H]3[C@@H](CO)N4C(=O)CN(C(=O)C5CCCC5)C[C@@H]34)cc2)c1 in Vaccinia inh Venus is entered as 13
C[C@@H]1CN([C@H](C)CO)C(=O)c2cccc(NS(C)(=O)=O)c2O[C@H]1CN(C)Cc1ccc(Cl)c(Cl)c1 in Vaccinia inh is entered as -5
CCC(=O)N1C[C@@H](C)[C@H](OC)CN(C)C(=O)c2ccc(NC(=O)c3ccccc3)cc2OC[C@@H]1C in Vaccinia inh Venus is entered as -1
Cc1ccc(S(=O)(=O)N(C)C[C@H]2OCCCC[C@@H](C)Oc3ccc(NS(=O)(=O)c4cn(C)cn4)cc3C(=O)N([C@@H](C)CO)C[C@H]2C)cc1 in Vaccinia inh is entered as 4
